MITF inh: inhibitors of MITF; TRPM1 promoter luciferase, luminescence, 24 h; inhibition, % (concentration not given with the values); 37,000 tested, 0.28% active;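 active = most replicates at 85% or more, or half of them and the mean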;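 note: human melanocyte line stably carrying TRPM1 promoter luciferase reporter; 0% = vehicle wells and 100% = a positive control; the first replicate is given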
PD-1 reversal: reversal of PD-1 mediated T-cell inhibition | AID 2316 | activation, % (no concentration beside the values) | primary human CD4 T cells, PD-L1 beads, CellTiter-Glo 96 h | 29,000 tested, under 10 active;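 active = replicate mean of 50% or more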;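 note: 0% = median vehicle wells and 100% = positive control; 100 nL library stock added to about 50 µL; numbers are from one replicate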
YB-1 expression: YB-1 expression inhibition; U2OS, qRT-PCR YB-1 vs CDIP delta delta Cp, 16 h; active compounds read high; zero = DMSO, each unit about twofold; delta delta Cp (YB-1 minus CDIP) (concentration not given with the values); 30,000 tested, 0.37% active; AID 434959;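 active = delta delta Cp rounded down to an integer at or above 3, about 3 SD of DMSO wells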;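 note: higher means less YB-1 transcript or more CDIP transcript relative to DMSO; stock transfer was 100 nL into about 100 µL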
Hedgehog inh: Sonic Hedgehog pathway inhibition; inhibition, % (no concentration beside the values); 22,000 tested, 2.1% active; Shh-LIGHT2 Gli-luciferase reporter, 30 h;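 active = replicate mean of 65% or more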;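 note: pathway switched on by Shh-conditioned medium diluted 1 in 25 in low serum; 100 nL library stock added to about 40 µL; 0% = median of neutral wells and 100% = positive control level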
An asterisk follows results filed as active.

Screening C[C@H](CO)N1C[C@H](C)[C@@H](CN(C)Cc2ccccc2)Oc2ccc(NS(=O)(=O)c3ccccc3)cc2C1=O returned MITF inh -5, PD-1 reversal -3.1 and YB-1 expression -0.48.
For CC(C)NC(=O)Nc1ccc2c(c1)CC(=O)N([C@@H](C)CO)C[C@@H](C)[C@@H](CN(C)C(=O)Nc1ccc(F)cc1)O2 the results were MITF inh -18, PD-1 reversal -0.2, YB-1 expression -0.22 and Hedgehog inh -7.
Screening O=C(CSc1n[nH]c(-c2ccc(Cl)cc2)n1)Nc1ccc(Br)c(Cl)c1 returned MITF inh 56 and PD-1 reversal -3.5.
`CC1=C(CC/C(C)=C/C(=O)O)[C@@]2(C)CCCC(C)(C)C2CC1` (stereo partly drawn) gave MITF inh 1, PD-1 reversal 0.1, YB-1 expression -0.43 and Hedgehog inh -17.
Screening COc1ccc(S(=O)(=O)Nc2ccc3c(c2)C(=O)N([C@@H](C)CO)C[C@@H](C)[C@@H](CN(C)S(=O)(=O)c2c(C)noc2C)O3)cc1 returned MITF inh -11, PD-1 reversal 1.6 and YB-1 expression 0.21.
Screening COc1ccc(CN(C)C[C@H]2Oc3ccc(NC(=O)NC(C)C)cc3CC(=O)N([C@@H](C)CO)C[C@H]2C)cc1 returned MITF inh -2, YB-1 expression 0.033 and Hedgehog inh -6.
C[C@@H]1CCCCO[C@@H](CN(C)C(=O)Cc2ccccc2)[C@@H](C)CN([C@H](C)CO)C(=O)c2cc(NC(=O)Nc3cccc4ccccc34)ccc2O1 was read as MITF inh 1, PD-1 reversal -1.0, YB-1 expression 0.72 and Hedgehog inh -15.
C[C@H]1CN([C@@H](C)CO)C(=O)c2cccc(NC(=O)Nc3ccc(F)cc3)c2O[C@H]1CN(C)Cc1ccc(-c2ccccc2)cc1 was read as MITF inh 10, YB-1 expression 0.34 and Hedgehog inh -14.
Screening C[C@@H]1CN([C@H](C)CO)C(=O)c2cccc(NC(=O)c3nc4ccccc4s3)c2O[C@H]1CN(C)Cc1ccc(Cl)c(Cl)c1 returned MITF inh 14, PD-1 reversal -3.5, YB-1 expression 0.18 and Hedgehog inh -15.
`COc1ccc(S(=O)(=O)N(C)C[C@H]2Oc3ccc(NC(=O)Cc4ccccc4)cc3CC(=O)N([C@@H](C)CO)C[C@@H]2C)cc1` gave MITF inh 1, PD-1 reversal 1.8, YB-1 expression 0.12 and Hedgehog inh 22.
`C[C@H]1CN([C@@H](C)CO)C(=O)Cc2cc(NS(C)(=O)=O)ccc2O[C@H]1CN(C)Cc1ccc(C(F)(F)F)cc1` gave MITF inh 1, YB-1 expression -0.022 and Hedgehog inh 22.
Screening COc1ccccc1OCC(=O)Nc1cccc(-c2nnc(-c3ccco3)o2)c1 returned MITF inh -99 and PD-1 reversal 0.8.
Screening Cc1cc(C(=O)Nc2cccc3c2O[C@H](CN(C)C)[C@@H](C)CN([C@H](C)CO)C3=O)n(C)n1 returned MITF inh 7, YB-1 expression 0.42 and Hedgehog inh -11.
`C[C@@H]1CN([C@H](C)CO)C(=O)c2cccc(NS(=O)(=O)c3cn(C)cn3)c2O[C@@H]1CN(C)Cc1ccc(Oc2ccccc2)cc1` gave MITF inh -8, PD-1 reversal 0.8, YB-1 expression -0.13 and Hedgehog inh -5.
`C[C@@H]1CCCCO[C@@H](CN(C)C(=O)c2ccccc2)[C@@H](C)CN([C@H](C)CO)C(=O)c2cc(NC(=O)Nc3ccc4c(c3)OCO4)ccc2O1` gave MITF inh -4, PD-1 reversal 0.5, YB-1 expression -0.076 and Hedgehog inh -26.
For COc1ccc(OC)c(NC(=O)CSc2nc3sc(C)c(C)c3c(=O)n2-c2ccccc2)c1 the results were MITF inh 18 and PD-1 reversal -6.6.
For O=C(Nc1ccccc1)c1cc(S(=O)(=O)Nc2cccnc2)cs1 the results were MITF inh 22 and PD-1 reversal 1.6.
`C[C@@H]1CN([C@H](C)CO)C(=O)Cc2cc(NC(=O)NC3CCCCC3)ccc2O[C@@H]1CN(C)CC1CCCCC1` gave MITF inh 10, PD-1 reversal -1.5, YB-1 expression -0.049 and Hedgehog inh 13.
`CNC[C@@H]1Oc2c(NC(=O)C3CC3)cccc2C(=O)N([C@H](C)CO)C[C@H]1C` gave MITF inh -6, PD-1 reversal 1.9, YB-1 expression 0.22 and Hedgehog inh 0.
C[C@H](CO)N1C[C@H](C)[C@H](CN(C)C(=O)Nc2ccc3c(c2)OCO3)Oc2c(NC(=O)Nc3ccc(C(F)(F)F)cc3)cccc2C1=O was read as MITF inh 40, PD-1 reversal -2.9, YB-1 expression -0.59 and Hedgehog inh -67.
`C[C@H](CO)N1C[C@H](C)[C@H](CN(C)Cc2ccc(Cl)c(Cl)c2)Oc2ccc(NS(C)(=O)=O)cc2C1=O` gave MITF inh -6, PD-1 reversal 1.9 and YB-1 expression -0.15.
`COc1ccc(CN(C)C[C@H]2Oc3ccc(NC(=O)Cc4ccccc4)cc3CC(=O)N([C@H](C)CO)C[C@H]2C)cc1` gave MITF inh -21, PD-1 reversal 0.4 and YB-1 expression 0.071.
`c1coc(CNc2nc3ccccc3n2CCN2CCOCC2)c1` gave MITF inh -8 and PD-1 reversal 0.4.
Screening COC(=O)c1ccc(C(=O)OC)cc1 returned MITF inh -9, PD-1 reversal 0.7, YB-1 expression -0.48 and Hedgehog inh -9.

Already shown: eight of the compounds above.
Screening Cc1cc(C(=O)Nc2cccc3c2O[C@H](CN(C)C)[C@@H](C)CN([C@H](C)CO)C3=O)n(C)n1 returned MITF inh 7, YB-1 expression 0.42 and Hedgehog inh -11.
`C[C@@H]1CN([C@H](C)CO)C(=O)c2cccc(NS(=O)(=O)c3cn(C)cn3)c2O[C@@H]1CN(C)Cc1ccc(Oc2ccccc2)cc1` gave MITF inh -8, PD-1 reversal 0.8, YB-1 expression -0.13 and Hedgehog inh -5.
`C[C@@H]1CCCCO[C@@H](CN(C)C(=O)c2ccccc2)[C@@H](C)CN([C@H](C)CO)C(=O)c2cc(NC(=O)Nc3ccc4c(c3)OCO4)ccc2O1` gave MITF inh -4, PD-1 reversal 0.5, YB-1 expression -0.076 and Hedgehog inh -26.
For COc1ccc(OC)c(NC(=O)CSc2nc3sc(C)c(C)c3c(=O)n2-c2ccccc2)c1 the results were MITF inh 18 and PD-1 reversal -6.6.
For O=C(Nc1ccccc1)c1cc(S(=O)(=O)Nc2cccnc2)cs1 the results were MITF inh 22 and PD-1 reversal 1.6.
`C[C@@H]1CN([C@H](C)CO)C(=O)Cc2cc(NC(=O)NC3CCCCC3)ccc2O[C@@H]1CN(C)CC1CCCCC1` gave MITF inh 10, PD-1 reversal -1.5, YB-1 expression -0.049 and Hedgehog inh 13.
`CNC[C@@H]1Oc2c(NC(=O)C3CC3)cccc2C(=O)N([C@H](C)CO)C[C@H]1C` gave MITF inh -6, PD-1 reversal 1.9, YB-1 expression 0.22 and Hedgehog inh 0.
C[C@H](CO)N1C[C@H](C)[C@H](CN(C)C(=O)Nc2ccc3c(c2)OCO3)Oc2c(NC(=O)Nc3ccc(C(F)(F)F)cc3)cccc2C1=O was read as MITF inh 40, PD-1 reversal -2.9, YB-1 expression -0.59 and Hedgehog inh -67.

Other entries follow.
COC(=O)c1ccccc1NC(=O)CSC1=NC(c2ccccc2)CC(=O)N1 (stereo not drawn) was read as MITF inh 12 and PD-1 reversal -1.9.
Screening O=C(NCc1cccnc1)c1ccc2c(c1)C(=O)N(Cc1cccnc1)C2=O returned MITF inh 4 and PD-1 reversal 1.3.
For Cc1c(NC(=O)CN(c2ccc3c(c2)OCCO3)S(C)(=O)=O)c(=O)n(-c2ccccc2)n1C the results were MITF inh -27 and PD-1 reversal 1.2.
`COc1ccc(NC(=O)Nc2cccc3c2O[C@@H](CN(C)Cc2ccccc2)[C@H](C)CN([C@H](C)CO)C3=O)cc1` gave MITF inh 62, PD-1 reversal -8.1, YB-1 expression -0.23 and Hedgehog inh -14.
`COc1ccc(S(=O)(=O)N(C)C[C@H]2Oc3c(NC(=O)c4nc5ccccc5s4)cccc3C(=O)N([C@H](C)CO)C[C@@H]2C)cc1` gave MITF inh 11, YB-1 expression 0.066 and Hedgehog inh 12.
Screening C[C@H](CO)N1C[C@H](C)[C@H](CN(C)CC2CCCCC2)Oc2ccc(NC(=O)CCCN(C)C)cc2C1=O returned MITF inh -5, PD-1 reversal 0.1 and YB-1 expression 18*.
`C[C@@H]1CN([C@@H](C)CO)C(=O)c2cc(NC(=O)Cn3cnnn3)ccc2O[C@H]1CN(C)S(=O)(=O)c1ccc(F)cc1` gave MITF inh -5, YB-1 expression -0.077 and Hedgehog inh -11.
For Cc1noc(C)c1NC(=O)Nc1ccc2c(c1)CC(=O)N([C@@H](C)CO)C[C@@H](C)[C@@H](CN(C)Cc1ccc(C(F)(F)F)cc1)O2 the results were MITF inh -19, PD-1 reversal 0.9, YB-1 expression 0.27 and Hedgehog inh -28.
For Cc1noc(C)c1NC(=O)Nc1cccc2c1O[C@H](CN(C)CC1CCCCC1)[C@H](C)CN([C@H](C)CO)C2=O the results were MITF inh -3, PD-1 reversal 0.4, YB-1 expression -0.77 and Hedgehog inh -23.
For C[C@H](CO)N1C[C@H](C)[C@@H](CN(C)CC2CCCCC2)Oc2ccc(NC(=O)Nc3ccc4c(c3)OCO4)cc2C1=O the results were MITF inh -5, YB-1 expression -0.017 and Hedgehog inh -2.
Screening Cc1cc(C(=O)Nc2cccc3c2O[C@@H](CN(C)S(=O)(=O)c2ccc(Cl)cc2)[C@H](C)CN([C@@H](C)CO)C3=O)n(C)n1 returned MITF inh -2, YB-1 expression -0.1 and Hedgehog inh 41.
`C[C@H](CO)N1C[C@H](C)[C@H](CN(C)C(=O)Nc2ccccc2)Oc2ccc(NC(=O)c3ccncc3)cc2C1=O` gave MITF inh -2, YB-1 expression 0.22 and Hedgehog inh 13.
`COc1ccc(S(=O)(=O)N(C)C[C@@H]2Oc3c(NC(=O)C4CC4)cccc3C(=O)N([C@H](C)CO)C[C@H]2C)cc1` gave MITF inh -13, PD-1 reversal 0.2, YB-1 expression -0.18 and Hedgehog inh 23.
Screening COc1ccc(NC(=O)N(C)C[C@H]2Oc3ccc(NS(=O)(=O)c4c(C)noc4C)cc3CC(=O)N([C@@H](C)CO)C[C@@H]2C)cc1 returned MITF inh -9, PD-1 reversal -0.5, YB-1 expression 0.16 and Hedgehog inh -5.
Screening COc1ccc(NC(=O)CSC2=NC(c3ccccc3)CC(=O)N2)cc1Br (stereo not drawn) returned MITF inh 0 and PD-1 reversal -4.6.
`Cn1c(SCC(=O)N2CCN(Cc3ccccc3)CC2)nnc1-c1ccncc1` gave MITF inh 3 and PD-1 reversal 2.7.
Screening N#CCCN(Cc1ccccc1)C(=O)c1ccccc1[N+](=O)[O-] returned MITF inh -32 and PD-1 reversal 0.5.
`O=C(C[n+]1ccccc1)c1cc2ccccc2oc1=O` gave MITF inh 9, PD-1 reversal -0.7, YB-1 expression -0.33 and Hedgehog inh -15.
For C[C@H](CO)N1C[C@H](C)[C@@H](CN(C)Cc2ccccc2)Oc2c(NC(=O)Nc3ccc(C(F)(F)F)cc3)cccc2C1=O the results were MITF inh 46, PD-1 reversal -7.1, YB-1 expression -0.038 and Hedgehog inh -43.
COC(=O)c1ccccc1NC(=O)CNC(=O)c1cccs1 was read as MITF inh 4 and PD-1 reversal 2.1.
Screening Cc1ccc(S(=O)(=O)Nc2ccc3c(c2)C(=O)N([C@@H](C)CO)C[C@@H](C)[C@@H](CN(C)CC2CC2)O3)cc1 returned MITF inh 0, PD-1 reversal 0.9, YB-1 expression -0.58 and Hedgehog inh 0.
`C[C@@H]1CN([C@H](C)CO)C(=O)Cc2cc(NC(=O)NC3CCCCC3)ccc2O[C@H]1CN(C)Cc1ccc(C(=O)Nc2ccccc2N)cc1` gave MITF inh -13, PD-1 reversal -0.8 and YB-1 expression -0.14.
Screening Cc1cc(C)c(NC(=O)CSc2nncc3ccccc23)c([N+](=O)[O-])c1 returned MITF inh -4 and PD-1 reversal -3.2.
Cc1ccc2c(CC(=O)NCc3ccco3)coc2c1C was read as MITF inh 10 and PD-1 reversal -2.0.
`COc1ccc(S(=O)(=O)Nc2cccc3c2O[C@H](CN(C)C(=O)Nc2cccc4ccccc24)[C@@H](C)CN([C@@H](C)CO)C3=O)cc1` gave MITF inh 2, PD-1 reversal 1.3, YB-1 expression 0.16 and Hedgehog inh -5.
Screening COc1ccc(CN(C)C[C@H]2OCCCC[C@@H](C)Oc3ccc(NS(=O)(=O)c4cn(C)cn4)cc3C(=O)N([C@H](C)CO)C[C@@H]2C)cc1 returned MITF inh 4 and YB-1 expression -0.55.
`C[C@@H]1CN([C@H](C)CO)C(=O)c2cc(NC(=O)CCC(F)(F)F)ccc2O[C@H]1CN(C)Cc1ccc(Oc2ccccc2)cc1` gave MITF inh 16 and YB-1 expression -0.13.
For C[C@H]1CN([C@@H](C)CO)C(=O)c2cccc(NS(=O)(=O)c3ccc(F)cc3)c2O[C@H]1CN(C)C(=O)NC1CCCCC1 the results were MITF inh 13, PD-1 reversal -1.3, YB-1 expression -0.18 and Hedgehog inh 2.

Compound activity as filed in PubChem BioAssay.

The list is partial; rates above refer to the full screens.
